LT uptake inh: inhibitors of anthrax lethal toxin internalization | 70,000 compounds, 0.67% hits | Potency, µM (highest dose often 40 µM), for the others: at the top dose activity change, negative = inhibition, hits mostly inhibitors | Cells, anthrax lethal toxin internalization, FRET ratio (460/530); active = well fitted falling ratio curve with the 530 nm signal flat; inconclusive = other ratio curves, or a change in one channel alone; inactive = flat curves in the ratio and both channels; the % refers to the ratio; note: % is set by controls: 0 for no effect and ±100 for the full control effect; nearly all actives have a fitted effect of over 50% in size; tested in ME-180 cells; beta-lactamase reporter
SmPrx2 inh: inhibitors of Schistosoma mansoni peroxiredoxin 2; 65,000 compounds, 0.07% hits; Potency, µM; AID 448; S. mansoni Prx2 activity coupled to TGR/GSH (TGR is thioredoxin glutathione reductase), NADPH fluorescence loss, qHTS; some inactives read as strong as hits; active means full or partial inhibition curve with a strong effect at the top dose; inconclusive means weaker partial or single-point curve; inactive means no accepted curve; note: series up to 57 µM; many of its hits are not listed in these tables
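Coupled assay in which S. mansoni TGR passes NADPH reducing equivalents via glutathione to Prx2, which reduces H2O2. Compounds were preincubated 15 min at room temperature with 25 nM TGR/50 nM Prx2 mix. Kinetic NADPH fluorescence loss (ex 365/em 450 nm) was monitored.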
An asterisk follows results filed as active; ? = inconclusive; . = not tested or not shown; & = joins results of further samples; [ ] = another dose, or the depositor's remark. Potency is the fitted concentration of half-maximal effect. This is a subset; rates above refer to the full screens.

Start of the listing, in advance (4 entries):
compound,LT uptake inh,SmPrx2 inh
CCOc1cc(C2C(C#N)=C(N)OC3CCCC(=O)C32)ccc1OCCN1CCOCC1 (configuration not stated),2%,>57
COc1cc(CN2CCC(C(=O)N3CCN(c4ccccc4F)CC3)CC2)cc(OC)c1O,-22%,>57
O=S(=O)(NCCSc1nnc(-c2ccco2)n1-c1ccccc1)c1ccccc1,-17%,.
CCc1nnc(NC(=O)CCC(=O)N2CCN(Cc3cc(Cl)ccc3OC)CC2)s1,-8%,>57

Main list, previewed entries included:
compound,LT uptake inh,SmPrx2 inh
CCOc1cc(C2C(C#N)=C(N)OC3CCCC(=O)C32)ccc1OCCN1CCOCC1 (configuration not stated),2%,>57
COc1cc(CN2CCC(C(=O)N3CCN(c4ccccc4F)CC3)CC2)cc(OC)c1O,-22%,>57
O=S(=O)(NCCSc1nnc(-c2ccco2)n1-c1ccccc1)c1ccccc1,-17%,.
CCc1nnc(NC(=O)CCC(=O)N2CCN(Cc3cc(Cl)ccc3OC)CC2)s1,-8%,>57
COC(=O)NC(/C(C(=O)OC)=C(\C)NCc1ccccc1)c1ccco1 (configuration not stated),-3%[8 µM],.
Cc1cccc(NC(=O)Cn2c(=O)n(C)c3ccccc32)c1,-4%,>57
CC(C)NC(=O)CSc1nncn1-c1ccccc1,-8%,>57
CN(C)CCCN1C(=O)c2oc3ccc(F)cc3c(=O)c2C1c1cccnc1 (configuration not stated),11%,>57
COc1ccc(-c2cc([C@H](O)[C@@H]3CCCCN3)c3ccccc3n2)cc1,4%[8 µM],>57
Clc1ccc([C@@H](OCCN2CCCCC2)c2ccccc2)cc1,-23%[3.58 µM],>57
CC1=CC(C)(C)Nc2ccccc21,5%&3%,.
Nc1nc(SCc2nc3scc(-c4cccs4)c3c(=O)[nH]2)n[nH]1,7%,>57
CCOc1ncccc1C(=O)OCC(=O)N1CCN(S(=O)(=O)c2ccc(Cl)cc2)CC1,5%,>57
COc1ccc2c(c1)N(C)C(=O)CC(c1ccccc1)=N2,?,>57
C[C@](Cc1ccc(O)c(O)c1)(NN)C(=O)O,2%,>57
CC12CN3CC(C)(CN(C1)C3c1ccc3c(c1)OCO3)C2=O (configuration not stated),7%,>57
CC(NC(=O)C1CCN(S(=O)(=O)N2CCCCCC2)CC1)c1ccccc1 (configuration not stated),-7%,>57
CCn1c(COc2ccccc2C)nnc1SCC(=O)O,-5%,>57
CC(=O)Nc1ccc(OCC(O)CN2CCN(c3cccc(Cl)c3)CC2)cc1 (configuration not stated),-3%,>57
c1ccc(Cc2nnc3sc(-c4cccnc4)nn23)cc1,6%,>57

Record cards, as listed above. Values in the order: LT uptake inh | SmPrx2 inh
CC(C)NC(=O)CSc1nncn1-c1ccccc1 as listed: -8% | >57
CC1=CC(C)(C)Nc2ccccc21 as listed: 5%&3% | .
CCOc1ncccc1C(=O)OCC(=O)N1CCN(S(=O)(=O)c2ccc(Cl)cc2)CC1 as listed: 5% | >57
CC(NC(=O)C1CCN(S(=O)(=O)N2CCCCCC2)CC1)c1ccccc1 (configuration not stated) as listed: -7% | >57

The list continues:
compound,LT uptake inh,SmPrx2 inh
COC(=O)C1=C(N)OC2=C(C(=O)CC(C)(C)C2)C1c1cccnc1 (configuration not stated),-7%,>57
COc1ccc(-c2nc(CN3CCC(C(=O)N4CCc5ccccc54)CC3)c(C)o2)cc1OC,-21%,>57
Cc1ccc(NS(=O)(=O)c2cccc(C(=O)n3ncc(C#N)c3N)c2)c(C)c1,?,>57
CCCn1c(C)nc2c(N3CCOCC3)nc(C)nc21,-4%,.
c1coc(CN(Cc2cccs2)Cc2nnnn2C2CCCCC2)c1,-7%,>57
Clc1ccc(-n2nnnc2-c2ccccc2)cc1Cl,?,>57
O=C(Nc1ccc2c(c1)OCO2)c1cccc(Cl)c1,15%,>57
CCOC(=O)c1c(C)[nH]c(C(=O)CSc2nnnn2-c2ccccc2)c1C,3%,>57
O=C(Nc1cccnc1)c1ccc(Cl)c(S(=O)(=O)N2CCCCCC2)c1,-25%,>57
CC(=O)c1c(COC(=O)c2ccncc2)nc2ccccc2[n+]1[O-],-12%,>57
O=c1[nH]c(NCCCO)nc2c1C1(CCCC1)Cc1ccccc1-2,-26%,.
O=C(C1CCCCC1)N1CCN(S(=O)(=O)c2ccc(Cl)cc2)CC1,?,>57
CS(=O)(=O)N1CCN(C(=O)CCC2CCCC2)CC1,1%,>57
Cc1cc2oc(C(=O)NCc3ccc4c(c3)OCO4)c(C)c2cc1C,-10%,>57
CCOC(=O)c1cc(C)n(CCc2ccccc2)c1C,-8%,>57
COc1cccc(Cn2c(=O)c(-c3cn(C)c4ccccc34)nc3cnc(N4CCNCC4)nc32)c1,?,>57
Cn1c(=O)c2c(nc(NCCCO)n2Cc2cccc(Br)c2)n(C)c1=O,14%,>57
CC1(C)Cc2c(sc3nc(SCC(=O)O)[nH]c(=O)c23)CO1,4%,>57
Cc1ccc(S(=O)(=O)NCc2nc3ccccc3c(=O)n2N)cc1,8%,>57
CCOC(=O)c1[nH]c2ccc(OC)cc2c1NC(=O)C(C)N1CCSCC1 (configuration not stated),1%,>57

Further records:
compound,LT uptake inh,SmPrx2 inh
Cc1noc(C)c1C(=O)N1CCC[C@@]2(CCN(C(=O)Nc3ccccc3)C2)C1,4%,>57
Cc1nc(NC2CCCCC2)c2nc(-c3ccccc3)n(CCCN(C)C)c2n1,-20%,.
O=C1CCCC2=C1C(c1ccco1)Nc1ccc(C(=O)c3ccccc3)cc1N2 (configuration not stated),6%,.
CN(C)C(=O)c1ccc(-c2cncnc2N2CCNCC2)cc1,-7%,>57
COC(=O)[C@@H](NC(=O)Nc1ccc(OC(F)(F)F)cc1)C(C)C,-2%,>57
O=C(Nc1cccc(F)c1)c1ccc(S(=O)(=O)NCC2CCCO2)cc1 (configuration not stated),-3%,>57
COc1ccc(CC(=O)NCc2nnc(SCC(=O)Nc3nccs3)n2-c2ccccc2)cc1,17%,>57
COc1ccccc1N1CC(O)=C(c2nc3ccccc3c(=O)[nH]2)C1=N,19%,>57
O=S(=O)(c1ccc(S(=O)(=O)N(Cc2ccco2)Cc2ccccc2Cl)cc1)N1CCCC1,3%,>57
Cc1cc(=O)[nH]c2c1c(C)nn2C1CCCC1,0%,>57
O=C(O)[C@@H](Br)[C@@H](Br)c1ccccc1[N+](=O)[O-],?,>57
CN1CCc2nc(NC(=O)c3cccc(S(=O)(=O)N4CCc5ccccc54)c3)sc2C1,?,>57
Cn1cnnc1SCc1ccc(F)c2ccccc12,-12%,.
COC(=O)[C@H]1C[C@@H]1[C@H](NC(=O)c1cc(C)on1)c1ccccc1,4%,>57
O=C(CS(=O)(=O)Cc1ccccc1)Nc1nnc(C2CCCCC2)s1,7%,>57
CC(C)CCOP(=O)(c1ccc(N(C)C)cc1)C(O)c1ccccn1 (configuration not stated),-4%,>57
COc1ccc(S(=O)(=O)N2CCCN(S(=O)(=O)c3ccc(OC)cc3C)CC2)c(C)c1,-2%,>57
O=C(O)CCn1[nH]c(=O)ccc1=O,-10%,>57
CCN1CCN(c2nc3c(c(=O)n(C)c(=O)n3C)n2CCSc2nccc(C)n2)CC1,.,>57
Nc1nc(SCc2ccc3c(c2)OCO3)n[nH]1,8%,>57

Next structures
compound,LT uptake inh,SmPrx2 inh
Cc1ccc(S(=O)(=O)N[C@@H](CCCCN)C(=O)CCl)cc1,7%,>57
CC(NS(C)(=O)=O)C(c1cccs1)N1CCN(c2ccccc2)CC1 (configuration not stated),.,>57
Cc1ccc(Nc2nc3nonc3[nH]c2=O)cc1,-20%,>57
CCC(=O)Nc1nc2c(OC)ccc(OC)c2s1,23%,>57
CC1=NCCN1S(=O)(=O)c1ccc(Br)c(C)c1,8%,>57
CCOC(=O)c1cc(-c2ccc(N)cc2)sc1N,-5%,>57
O=C(CSc1nnc(CNc2ccccc2)o1)c1ccc2c(c1)OCCO2,-9%,>57
CC1CCCCC1NC(=O)c1ccc2c(c1)[nH]c(=O)n2C1CCCC1 (configuration not stated),-9%,>57
CCOc1ccc(C2c3c(oc4ccccc4c3=O)C(=O)N2c2ccccn2)cc1OC (configuration not stated),-2%,>57
COC(=O)Cc1c(C)c2c(OCc3nn[nH]n3)cc(C)cc2oc1=O,.,>57
O=C1NC(c2ccccc2Cl)Nc2ccccc21 (configuration not stated),-5%,>57
O=S(=O)(c1ccc2c(c1)OCCCO2)N1CCNCC1,1%,>57
CCOC(=O)CSc1nnc(C)n1N,-7%,>57
CCCn1c(SCC(=O)N2CCCc3ccccc32)nnc1-c1ccccn1,-4%,>57
Cc1ccc(NC(=O)CSc2nnc(-c3ccccc3C)o2)cc1C,9%,>57
Cc1nc2cnc(OCc3ccccc3)nc2n(CCc2ccccc2)c1=O,?,>11
CCCOc1cc(N)ccc1C(=O)OCCN(CC)CC,0%[3.58 µM],>57
O=C(O)c1cccc(COc2ccc(CO)cc2Cl)c1,-9%,>57
Cc1ccccc1C(NC(N)=O)c1ccccc1 (configuration not stated),2%,>57
N#CC(c1nc2ccccc2nc1N1CCCC1)S(=O)(=O)c1cccs1 (configuration not stated),-6%,.

(list continues)
compound,LT uptake inh,SmPrx2 inh
O=C(OCCN1CCOCC1)C1(c2ccccc2)CCCCC1,?,>57&>57
CCOC(=O)CSc1nc(N)c(C#N)c(CC(C)C)c1C#N,8%,>57
COc1ncc2nc(-c3cccs3)c(=O)n(-c3ccccc3)c2n1,?,>57
CCN(CCCNS(=O)(=O)c1ccc2c(c1)oc(=O)n2C)c1cccc(C)c1,-19%,>57
OC(COc1ccccc1)CSc1ncn[nH]1 (configuration not stated),6%,>57
COc1ccc(N2CC(C(=O)Nc3ccc4c(c3)OCO4)CC2=O)cc1 (configuration not stated),-3%,>57
C=C(C)Cn1c(N2CCC(Cc3ccccc3)CC2)nc2c1c(=O)[nH]c(=O)n2C,-12%,>57
Cc1cc(C)nc(Sc2c(F)c(F)c(C(F)(F)F)c(F)c2F)n1,5%,.
COc1ccc(NC(=O)CSc2ccccn2)cc1OC,20%,>57
COc1ccccc1CN1C(=O)CCC1(C)C(=O)NC1CCCCCC1 (configuration not stated),?,>57
CCC1(CC)C(=O)NC(=Nc2cccc(C(F)(F)F)c2)NC1=O,-16%,>57
C=CCN=C1SCC(=O)N1S(=O)(=O)c1ccccc1,9%,>57
Cc1ccc(CNC(=O)CS(=O)Cc2nc(-c3ccccc3C)oc2C)cc1 (configuration not stated),?,>57
c1ccc(-n2nnnc2Sc2n[nH]c(-c3ccncc3)n2)cc1,0%,>57
CCn1ncc(Br)c1C(=O)Nc1ccc(F)cc1F,?,>57
Cc1ccccc1-c1cncnc1NCCc1cnc[nH]1,-8%,>57
COc1cccc(Cn2c(=O)c(-c3ccccc3)nc3cnc(N4CCN(C)CC4)nc32)c1,?,>57
CCc1ccc2[nH]c(=O)c(C(c3nnnn3CC3CCCO3)N3CCCc4ccccc43)cc2c1 (configuration not stated),-3%,>57
CCC1(C)CC(=O)NC(=O)C1,-2%[3.58 µM],>57
COc1cc(CN2CC3CC(C2)c2cccc(=O)n2C3)cc(OC)c1OC (configuration not stated),8%,>57

Following part.
compound,LT uptake inh,SmPrx2 inh
CCC(Cl)[N+](=O)[O-] (configuration not stated),-2%,.
CN(C)C(=O)C1CCN(Cc2c[nH]c3ccccc23)CC1,-12%[8 µM],>57
CCSc1nnc(NC(=O)c2nn(C(C)C)c(=O)c3ccccc23)s1,-7%,>57
N#Cc1cc2c(nc1SCc1cccnc1)CCC2,-3%,>57
Clc1ccc(-c2nnc(SCc3nc(-c4ccccc4)no3)o2)cc1,?,>57
CCOC(=O)C1CCCN(C(=O)c2cn(CC)c3ccc(S(=O)(=O)N(C)C)cc3c2=O)C1 (configuration not stated),11%,>57
Cc1ccc(NS(=O)(=O)c2cccc(C(=O)OCC(=O)NCc3ccco3)c2)cc1,-13%,>57
NC(=O)c1cnn(Cc2ccc(Cl)cc2)c1N,1%,>57
Cc1cnc(NC(=O)CSc2nnc(-c3ccc(Cl)cc3Cl)n2N)s1,6%,>57
NC(=O)C1CC=CCC1C(=O)OCC(Cl)=C(Cl)Cl (configuration not stated),2%,.
O=C(O)CNC(=O)c1ccc([N+](=O)[O-])cc1,-4%,.
CC(=O)NCCSCCNC(C)=O,0%,>57
CN(C)c1ccc(C(=O)Nc2ccc(S(=O)(=O)NC3=NCCCCC3)cc2)cc1,5%,>57
O=NO,-5%&-2%,.
Cc1ccc(-c2nn(-c3ccccc3)cc2C2SCC(=O)N2Cc2ccccc2)o1 (configuration not stated),?,>57
CCOC(=O)C1=C(C)N(c2nonc2NC(C)=O)C(N)=C(C#N)C1c1ccccc1F (configuration not stated),-9%,?
CCOC(=O)c1ccc(N2C(=O)CC(Sc3nc(O)c(CC)c(=O)[nH]3)C2=O)cc1 (configuration not stated),6%,>57
O=C(N=c1nc2ccccn2s1)c1ccccc1,?,>57

Screens (PubChem BioAssay)
